Bead autofluor: compound fluorescence in toxin protease inhibitor counterscreen | fluorescence intensity (test concentration not listed) | AID 624483 | 3.1% of 360,000 active | compound autofluorescence counterscreen, microsphere flow cytometry; stronger effect = higher value;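 active = at least 3 SD above the mean of all compounds, about 16000 in these data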;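 also: 100 nL of 1 mM stock went into each well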
* hit, by the source's call. An excerpt; rates above refer to the full screens.

SMILES,Bead autofluor
Cn1sc2ccccc2c1=O,3901
CCC(c1nnnn1-c1ccc2c(c1)OCCO2)N1CCN(C)CC1 (stereo unspecified),5672
Cc1cc(C)c(S(=O)(=O)c2ccc(F)cc2)c(C)c1,2894
O=C(Nc1c(-c2ccccc2)[nH][nH]c1=O)c1cccc(C(F)(F)F)c1,6359
Cc1ccccc1S(=O)(=O)NC(=O)C1(C)CCN1C(=O)Cc1ccc(C(C)(C)C)cc1 (stereo unspecified),2952
OC(c1cccc(Cl)c1)c1ncc(-c2cccc3ccccc23)[nH]1 (stereo unspecified),2757
O=C(Nc1cccc(C(=O)O)c1)/C(=C\c1ccc2c(c1)OCO2)NC(=O)c1ccccc1Br,2687
CN1CCN(C(=O)C(=O)c2cn(CC(=O)N3CCOCC3)c3ccccc23)CC1,4086
CC(=Cc1cccs1)C(=O)c1ccccc1,2805
CC1(C(=O)NS(=O)(=O)c2cccc(F)c2)CCN1C(=O)CCc1ccc(Cl)cc1Cl (stereo unspecified),3518
C[C@H]1CN([C@@H](C)CO)C(=O)CCCn2nncc2CO[C@@H]1CN(C)S(=O)(=O)c1ccc(-c2ccccc2)cc1,3962
CCCn1c(N)c(N(CCOC)C(=O)COC(=O)COc2c(C)cc(C)cc2C)c(=O)[nH]c1=O,3008
O=C(NC1CC1)c1ccc(CSCc2ccc(Cl)cc2)o1,3642
COc1ccc(F)cc1-c1cc(C(=O)Nc2ccc(NC(C)=O)cc2)[nH]n1,3128
COc1ccc(NC(=O)N2C[C@H]3CON(C)[C@H]3C[C@H]2c2ccc(N3CCCCC3)cc2)cc1,6135

A few values from the entries so far.
For Bead autofluor, Cc1ccccc1S(=O)(=O)NC(=O)C1(C)CCN1C(=O)Cc1ccc(C(C)(C)C)cc1 (stereo unspecified) shows 2952
For Bead autofluor, CCC(c1nnnn1-c1ccc2c(c1)OCCO2)N1CCN(C)CC1 (stereo unspecified) shows 5672

The results go on:
SMILES,Bead autofluor
Cc1c(CCC(=O)N2C[C@H]3C[C@@H](C2)c2cccc(=O)n2C3)c(=O)oc2c(C)c(O)ccc12,5111
NC(Cc1ccc(Cl)cc1)c1csc(Nc2cnccn2)n1 (stereo unspecified),3571
COCC1CCN(C(=O)c2ccc3nc(Cc4cccc(Cl)c4)oc3c2)CC1,3353
O=C(NCc1cc(Cl)cc(Cl)c1)c1ccc2nc([C@@H]3O[C@H](CO)[C@H](O)[C@H](O)[C@H]3O)[nH]c2c1,3689
Fc1ccc(-c2nc3c(Cl)cc(C(F)(F)F)cn3c2Cc2ccsc2)cc1,5856
Cc1ccc(S(=O)(=O)N(C)C[C@@H]2OCc3cnnn3CCCC(=O)N([C@@H](C)CO)C[C@@H]2C)cc1,3163
CCOC(=O)C1(C)CCCN(C(=O)c2cccs2)C1 (stereo unspecified),3361
COc1cccc(NC(=O)C2CCN(S(=O)(=O)c3ccc(N4CCCC4=O)cc3)CC2)c1,3573
CCCNC(=O)C1(C)CCN(Cc2csc3ccccc23)C1 (stereo unspecified),3476
CC1(C(=O)NS(=O)(=O)c2ccccc2Cl)CCN1C(=O)CCc1ccccc1 (stereo unspecified),4148
CSC[C@H]1CN(Cc2cccnc2)C(=O)[C@@H]1CC(=O)Nc1ccc(Br)cc1,3857
CC(O)(c1cccc(F)c1)c1nc(/C=C/c2ccccc2)cs1 (stereo unspecified),3534
CC1(Oc2ccc(Cl)cc2)CCN(Cc2csc3ccccc23)C1 (stereo unspecified),3910
COc1cccc(-c2cnc3c(NC=O)cc(-c4ccoc4)cn23)c1,3202
COC(=O)[C@]12CCCCC=C1N(Cc1ccc(Cl)cc1Cl)C(=O)[C@H](CC(=O)NCc1ccccc1)C2,5441
Clc1ccc(-c2cccc3nccn23)cc1,3772
O=C1NC[C@@H](CCCCN2C[C@H](Cc3ccc(O)cc3)N(CCc3ccc(O)cc3)C(=O)C2=O)N(Cc2ccccc2)C1=O,4058
CC1(CCCc2ccc(N(CCCl)CCCl)cc2)NC(=O)NC1=O (stereo unspecified),3665
COc1ccc(S(=O)(=O)N(C)C[C@H]2OCCCC[C@H](C)Oc3ccc(NC(=O)Nc4ccc(F)cc4)cc3C(=O)N([C@H](C)CO)C[C@H]2C)cc1,3283
N#Cc1ccc(OCC(=O)Nc2nc(-c3ccccn3)cs2)cc1,3510
Nc1ncnc2c1ncn2[C@@H]1O[C@H](C(=O)N2CCCN(Cc3ccccc3F)CC2)[C@@H](O)[C@H]1O,5464
C[C@@H]1CN([C@@H](C)CO)C(=O)c2ccccc2-c2ccccc2CO[C@@H]1CN(C)S(=O)(=O)c1ccc(C(F)(F)F)cc1,3899
CC1(C(=O)Nc2ccc3[nH]ncc3c2)CCN1C(=O)C1(c2ccccc2)CC1 (stereo unspecified),2799
O=C(c1ccco1)N1CCN(c2ncnc3scc(-c4ccc(Cl)cc4)c23)CC1,3482
COc1ccc(NC(=O)C2(C)CCN2C(=O)c2ccccc2CCc2ccccc2)cc1OC (stereo unspecified),3641
CCN(CC)C(=O)c1cccc(-c2csc(C(NC(C)=O)c3cccc(OC)c3)n2)c1 (stereo unspecified),3883
CCOC(=O)[C@]12CCCC=C1N(Cc1ccc(Cl)cc1Cl)C(=O)[C@H](CC(=O)NCC1CCCCC1)C2,5274
CC(C)Oc1ccc(F)cc1-c1cc(C(=O)NCc2ccc(C(F)(F)F)cc2)[nH]n1,3289
CC1(C)CC(=O)C=C(c2ccc(-c3ccc(S(C)(=O)=O)cc3)cc2)C1=O,3527
COCOCCn1cc(CN2CCS(=O)(=O)N(Cc3ccc(-c4ccc(C)cc4)cc3)C(CC(C)C)C2=O)nn1 (stereo unspecified),2920
OCC[C@@H]1C[C@H](O)[C@@H](O)[C@]2(OCc3cc(Cl)ccc32)O1,6249
S=C(SSC(=S)N1CCOCC1)N1CCOCC1,5610
C[C@@H]1CN([C@H](C)CO)C(=O)c2cc(-c3ccc(F)cc3)cnc2O[C@H]1CN(C)C(=O)c1ccc(F)cc1,3515
Nc1ncnc2c1ncn2[C@@H]1O[C@H](CNC(=O)[C@@H](N)Cc2ccc(C(=O)c3ccccc3)cc2)[C@@H](O)[C@H]1O,5469
Cc1ccc(S(=O)(=O)N2C[C@H]3[C@H]4C(=O)N(c5ccccc5)C(=O)[C@H]4CC(=O)[C@H]3[C@@H]2c2ccc(Cl)cc2)cc1,4356
Cc1ccc2cccc(CC(=O)NN)c2c1,3604
CCc1nc2ccc(C(=O)Nc3ccc(Cl)c(Cl)c3)cn2c1N(C)Cc1ccc(OC)cc1,3783
CC(C)(C)Cc1c(-c2ccc(Br)cc2)nc2ccc(Cl)cn12,4151
O=C(CCNS(=O)(=O)c1ccccc1)OCc1ccc([N+](=O)[O-])cc1,3906
Cc1ccc(S(=O)(=O)NC(=O)C2(C)CCN2C(=O)C2(c3ccc(Cl)cc3)CC2)cc1 (stereo unspecified),2847
O=S1(=O)CC(O)C(O)CS1 (stereo unspecified),6577
CCC/C=C/c1ccc(CN2C(C)C(=O)N(Cc3cn(CC4CCCCC4)nn3)CCS2(=O)=O)cc1 (stereo unspecified),3883
C=C1C(=O)[C@]23C[C@H]1CCC2[C@@]1(C)C(C[C@@H]3O)[C@](C)(C(=O)OC)CC[C@@H]1O (stereo partly specified),5545
CC(=O)c1ccc(-c2cccc3nccn23)cc1,3850
COCCNc1oc(/C=C/c2cccs2)nc1S(=O)(=O)c1ccccc1,4032
O=C(C1CCCCC1)N1C[C@H](n2cc(-c3ccc(F)cc3)nn2)[C@@H](O)C[C@@H]1c1ccc(Cl)cc1,3518
COc1cc(C(=O)NCC(c2cccs2)N2CCOCC2)ccc1OCc1ccccc1 (stereo unspecified),2894
Cc1nc2nc(C)c(C)nc2nc1C,2798
COc1cc(/C=C/CNC[C@H]2O[C@@H](n3cnc4c(=O)[nH]c(N)nc43)[C@H](O)[C@@H]2O)ccc1O,5660
COc1ccc(C2CC(c3cccc(OC)c3)=NN2c2ccc(S(N)(=O)=O)cc2)cc1 (stereo unspecified),3271
CCOC(=O)[C@]12CCCC=C1N(Cc1cccc3ccccc13)C(=O)[C@H](CC(=O)N1CCCC1)C2,4908
CCCCN1C(=O)C(=O)NC[C@@H]1Cc1ccc(O)cc1,4131
CC(=O)Nc1cccc(-c2ccnc3c2CC(C(=O)NCC2CCOCC2)O3)c1 (stereo unspecified),3715
CNc1cc(-c2ccc(O)cc2C)ncn1,3779
COc1ccccc1-c1cnc(C(O)c2c(C)cc(C)cc2C)[nH]1 (stereo unspecified),3715
COc1ccc(CN(C)C(=O)c2cc(-c3ccccc3)nc3ccc(C)cc23)c(OC)c1,3888
CC1(C(=O)NCCC#N)CCN1C(=O)C1(c2ccccc2)CC1 (stereo unspecified),2932
CN(CC(=O)Nc1ccc(Cl)c(Cl)c1)CC(=O)N1CCc2ccccc21,4076
c1ccc(-c2cc3nc(NCC4CC4)nc(NCC4CCCCC4)c3s2)cc1,2941
CCCCC[C@@H](C)N1C[C@@H](COCc2ccccc2)Oc2cc(N3CC[C@H](N(C)C)C3)ccc2S1(=O)=O,5858

Looked up by compound from the list above, seven records:
SMILES,Bead autofluor
COc1ccccc1-c1cnc(C(O)c2c(C)cc(C)cc2C)[nH]1 (stereo unspecified),3715
COc1ccc(CN(C)C(=O)c2cc(-c3ccccc3)nc3ccc(C)cc23)c(OC)c1,3888
COc1cc(/C=C/CNC[C@H]2O[C@@H](n3cnc4c(=O)[nH]c(N)nc43)[C@H](O)[C@@H]2O)ccc1O,5660
CC(=O)Nc1cccc(-c2ccnc3c2CC(C(=O)NCC2CCOCC2)O3)c1 (stereo unspecified),3715
CC1(C(=O)NCCC#N)CCN1C(=O)C1(c2ccccc2)CC1 (stereo unspecified),2932
COc1ccc(C2CC(c3cccc(OC)c3)=NN2c2ccc(S(N)(=O)=O)cc2)cc1 (stereo unspecified),3271
CCCCC[C@@H](C)N1C[C@@H](COCc2ccccc2)Oc2cc(N3CC[C@H](N(C)C)C3)ccc2S1(=O)=O,5858

Additional results follow:
SMILES,Bead autofluor
C=CCCC(=O)N1C[C@H]2CON(C)[C@H]2C[C@H]1c1cccc(N2CCOCC2)c1,3913
Cc1ccccc1-c1cnc(C(O)c2cc(Cl)cc(Cl)c2)[nH]1 (stereo unspecified),3820
CCCNC(=O)N(C)C[C@@H]1Oc2ncc(-c3ccncc3)cc2C(=O)N([C@H](C)CO)C[C@@H]1C,3386
CNc1nc(NCCOc2ccccc2)c2sccc2n1,3686
Cc1cc(C(=O)N2CCC2(C)C(=O)O)c(C)o1 (stereo unspecified),3538
CCN1CCN(C(c2ccccc2)c2nnnn2C(C)(C)C)CC1 (stereo unspecified),5520
CC1(C(=O)NS(=O)(=O)c2ccccc2Cl)CCN1C(=O)CC1CCCCC1 (stereo unspecified),3764
O=[N+]([O-])c1ccc2cccnc2c1,3754
CC(C)c1ccc(NC(=O)c2cc(-c3cc(F)ccc3OCC3CCCO3)n[nH]2)cc1 (stereo unspecified),3358
COc1ccccc1Cc1c(-c2ccc(OC)c(OC)c2)nc2cc(C)c(Br)c(C)n12,4221
Cc1cccc(C)c1-n1nnnc1C(CCc1ccccc1)N1CCN(C/C=C/c2ccccc2)CC1 (stereo unspecified),5943
C[C@@H](O)C#Cc1ccc2c(c1)O[C@H](CN(C)C(=O)Nc1ccccc1)[C@@H](C)CN([C@@H](C)CO)S2(=O)=O,2933
CCc1nc2ccc(C(=O)N3CCN(S(=O)(=O)CC)CC3)cn2c1N(CC)CCN(C)C,4033
C[C@@H]1CN([C@@H](C)CO)S(=O)(=O)c2ccc(Br)cc2O[C@H]1CN(C)Cc1ccccc1F,3327
COc1ccc(C(=O)COC(=O)CCn2c(C)csc2=O)c(OC)c1,3749
COC(=O)c1ccc2nc(-c3ccc(OC)c(OC)c3)c(Cc3ccc(OC)cc3C)n2c1,4538
CC[C@H]1O[C@H](C)CC2=C1C(=O)OC(C)(C)O2,6340
CCCNC(=O)C1(C)CCN(Cc2cc(C)n(C)n2)C1 (stereo unspecified),3611
COC(=O)c1cn(C)c2ccc(S(=O)(=O)N(C)C3CCCCC3)cc2c1=O,3583
C[C@H]1CN([C@@H](C)CO)C(=O)CCCn2nncc2CO[C@H]1CN(C)C(=O)Oc1ccc2ccccc2c1,3667
CCOC(=O)C1(C)CCCN(C(=O)c2ccc(C)c(F)c2)C1 (stereo unspecified),4063
Cc1noc(C)c1-c1ccc(C(=O)Nc2ccccc2)c2occc12,2970
CC(=O)Nc1ccc(NC(=O)c2ccc(-c3ccnn3C)c3ccoc23)cc1,3746
Cc1ccc(Cc2c(-c3ccc(Cl)cc3)nc3ccc(Br)cn23)cc1,4520
O=C(Nc1cccc(C(=O)N2CCOCC2)c1)C1CCCCC1,4299
Cc1ccc(S(=O)(=O)N2CCC(=O)N([C@H](COCc3cccc(C)c3)C(C)C)CC2)cc1,5455
CCn1cc(/C=C(\NC(=O)c2ccccc2)C(=O)NCCCn2ccnc2)c2ccccc21,3048
CCOC(=O)C1(C)CCN1C(=O)c1ccc2c(c1)CCO2 (stereo unspecified),4058
CC(C)(C)c1cc(NC(=O)COC(=O)c2ccccc2O)n(-c2ccccc2)n1,3679
CCCC(=O)N1CCCC1(C)C(=O)NCCc1ccccn1 (stereo unspecified),3831
COCCNc1nc(NCCNC(C)=O)c2sc(-c3ccccc3)cc2n1,3628
O=C(CCCCCN1C(=O)c2cccc([N+](=O)[O-])c2C1=O)NCCc1ccccc1,2966
O=C1NC[C@@H](CCCCN2C[C@H](Cc3ccc(O)cc3)N(Cc3ccccc3)C(=O)C2=O)N(CCc2ccc(O)cc2)C1=O,5895
CCOC1=C2CN(S(=O)(=O)c3ccc(C)cc3)[C@@H](c3ccccc3)C[C@H]2[C@H]2C(=O)N(c3ccccc3)C(=O)[C@H]2C1,6194

From PubChem BioAssay
